Bioassay records deposited in PubChem by Broad Institute.
Tg IFNy HTS: T. gondii growth inhibition with IFN-gamma, primary screen, cell-based | activity change, negative = inhibition, %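 (about 20 µM by stock and volumes)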 | Toxoplasma gondii growth in IFN-gamma-treated host cells; active compounds read low; reference of the scale not given here | actives 3.8% (n = 69,000);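 active = below -70%; inconclusive = fit judged invalid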;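 also: host cells are HeLa cells infected with Toxoplasma gondii; parasite growth read as luciferase light; one replicate is shown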
* = called active by the depositor; i = inactive; ? = inconclusive; & = joins results of further samples. A portion of the library, so the mix of outcomes need not match the whole.

compound	Tg IFNy HTS
CCn1nc(C)c(NC(=O)CNC(C)Cn2nc(C)cc2C)c1C (stereo unspecified)	0
Cc1cc(=O)oc2cc(CN3CCN(C(=O)c4ccccc4)CC3)ccc12	6
CS(=O)(=O)N1[C@@H]2Cn3c(ccc(-c4cccc(F)c4)c3=O)[C@H]1[C@@H](C(=O)N1CCCCC1)[C@@H]2CO	-1
COc1ccc2c3c([nH]c2c1)[C@H](CO)N(C(=O)c1cnccn1)CC31CN(S(=O)(=O)c2ccccc2)C1	15
COCCN1CCN(C(=O)C2CCOCC2)Cc2cccnc21	5
N#Cc1ccc(N2CC3(CCN(c4nccs4)C3)CC2=O)cc1 (stereo unspecified)	-1
COc1c(C)cnc(CN2CCCC3(CC2)CN(C)C(=O)O3)c1C (stereo unspecified)	-1
COc1ccc([C@@H]2C/C=C\C[C@@H](c3ccc(F)cc3)NC(=O)CCC(=O)N2)c(OC)c1	25
CCn1c(=O)c2sccc2n(CC(=O)N2CCCCC2C)c1=O (stereo unspecified)	-22
CCCc1cc(C(=O)Nc2cnn(Cc3ccc(F)cc3)c2)n[nH]1	-90*
CC(C)c1cc(C(=O)Nc2ccc(Cn3cncn3)cc2)cs1	107
O=C(CCC1N=C2c3ccccc3N=C(SCc3cccc(F)c3)N2C1=O)NC1CCCCC1 (stereo unspecified)	-32
Cc1ccc(C)n1-c1ncccc1OCc1nnc(-c2ccc3ccccc3c2)o1	-45
CCc1c(C(=O)N2CCN(CCn3cncn3)CC2)[nH]c2ccccc12	8
CCN(C)c1cc(N2CCN(Cc3ccc(OC)cc3F)CC2)ncn1	-21

Filtered by structure: the entries above containing a halogen
compound	Tg IFNy HTS
CS(=O)(=O)N1[C@@H]2Cn3c(ccc(-c4cccc(F)c4)c3=O)[C@H]1[C@@H](C(=O)N1CCCCC1)[C@@H]2CO	-1
COc1ccc([C@@H]2C/C=C\C[C@@H](c3ccc(F)cc3)NC(=O)CCC(=O)N2)c(OC)c1	25
CCCc1cc(C(=O)Nc2cnn(Cc3ccc(F)cc3)c2)n[nH]1	-90*
O=C(CCC1N=C2c3ccccc3N=C(SCc3cccc(F)c3)N2C1=O)NC1CCCCC1 (stereo unspecified)	-32
CCN(C)c1cc(N2CCN(Cc3ccc(OC)cc3F)CC2)ncn1	-21

New compounds follow
compound	Tg IFNy HTS
Cn1ccnc1CN1CCC2(COCCN(S(C)(=O)=O)C2)C1 (stereo unspecified)	7
CCNC(=O)[C@H]1CC[C@@](C)(C(=O)NCCN2CCCCC2)C1(C)C	5
COc1ccc(-c2nc(C)cnc2C)c(OC)c1OC	-2
Cc1ccc(-c2nc(CN3CCN(C(=O)Nc4ccc(C)c(Cl)c4)CC3)c(C)o2)cc1	-20
CC(C)c1noc(-c2cc(=O)n(CC(=O)Nc3cccc(C#N)c3)c3ccccc23)n1	1
COc1cc2c(cc1OC)C(=O)OC2	6
O=C(NC1CC1)C1CN(Cc2ccc(-c3ccccn3)cc2)CCN1 (stereo unspecified)	-5
NS(=O)(=O)c1ccc(NC(=O)c2ccc(-c3cc(Cl)ccc3Cl)o2)cc1	-100*
Cc1c(O)c(=O)ccn1C	20&4
O=C(C[C@H]1CC[C@@H]2[C@H](COC[C@H](O)CN2Cc2cc(F)cc(F)c2)O1)Nc1nccs1	-35
CN(C)C(=O)C[C@H]1CC[C@@H]2[C@H](COC[C@@H](O)CN2C(=O)C2CCOCC2)O1	10
Cc1noc(C)c1CN(C)C(=O)c1n[nH]c2c1CC(C)CC2 (stereo unspecified)	-1
CO[C@@H]1CC[C@@H]2CCN(C)C(=O)CCCN(C)C(=O)c3cc(C#N)ccc3OC[C@@H]1O2	-52
Cc1ccc(Nc2ncnc3c2cnn3-c2ccc(Cl)cc2)cc1	22
Fc1ccc(CC2CCN(CC3CCOC3)CC2)cc1 (stereo unspecified)	-13
c1nc(N2CCN(Cc3cc4n(n3)CCNC4)CC2)c2[nH]cnc2n1	63
CN(C)CC1(O)CCN(C(=O)c2ccc(-n3cnnc3)cc2Cl)C1 (stereo unspecified)	1
CS(=O)(=O)N1CCCn2nnc(Cn3cccc3)c2C1	-33
Cc1ccc(C)c(S(=O)(=O)NCCc2sc(-c3cccc(F)c3)nc2C)c1	-32
Cc1[nH]n(-c2ccccc2)c(=O)c1N=Nc1ccc(C(=O)O)cc1	57
C[C@@H]1CN([C@H](C)CO)C(=O)c2cccc(NC(=O)c3nc4ccccc4s3)c2O[C@@H]1CN(C)C(=O)Nc1ccc2c(c1)OCO2	-22
COc1ccc(-c2nsc3c2NC(=O)CC3c2cccnc2)cc1 (stereo unspecified)	-50
CSCCC(=O)N1CCC(O)(c2ccc3nc(C)ccc3c2)CC1	-3
COc1cc(Cl)cc(CN(C)C(C)C(=O)N(C)C)c1OC (stereo unspecified)	2
CCOC(=O)c1c(C)n(C)c2cc(CN(C)C)c(O)c(S(=O)(=O)c3ccccc3)c12	-32
COc1cc(C)ccc1OCCNS(=O)(=O)c1ccc2c(c1)CC(=O)N2C	13
C[C@@H]1CN([C@@H](C)CO)C(=O)c2cc(C#Cc3ccccc3)cnc2O[C@H]1CN(C)C(=O)c1ccccc1	?
CCn1cc(C(CNC(=O)Nc2ccc(OC)cc2)c2cccnc2)c2ccccc21 (stereo unspecified)	i
CSCC[C@H](NC(=O)[C@@H](N)Cc1c[nH]c2ccccc12)C(=O)N[C@@H](CC(=O)O)C(=O)N[C@@H](Cc1ccccc1)C(N)=O	25
COc1ccc(S(=O)(=O)NCCc2sc(-c3cccc(C)c3)nc2C)cc1F	i
O=C(NCC1OCCc2cn(Cc3ccccn3)nc21)c1ccco1 (stereo unspecified)	15
c1cncc(-c2nccn2Cc2ccc(-n3cncn3)cc2)c1	-1
CCCNC(=O)N1CC2(C1)[C@@H](c1ccccc1)[C@@H](CO)N2C(=O)c1cccnc1	-5
COc1ncc(-c2c(-c3ccccc3)ncn2CC(C)C)cn1	-25
CCCc1cc(C(=O)NC(C)c2ccccc2)n(C)n1 (stereo unspecified)	-53
O=C(c1cccs1)N1N=C(c2ccc(Cl)cc2)CC1(O)C(F)(F)F (stereo unspecified)	-97*
Cc1cccc(NC(=O)CN2C(=O)CCc3cc(Br)ccc32)c1	-25
CN1c2ccc(Br)cc2[C@@H]2[C@@H](CCN2C(=O)CN2CCOCC2)[C@H]1CO	30
CN(C)S(=O)(=O)N1C[C@@H]2COC[C@]2(COCC2CCOCC2)C1	-1
O=c1ccc2cc(S(=O)(=O)NCC3CCN(Cc4ccccc4F)CC3)ccc2[nH]1	-11
CCOC(=O)Cc1cc(=O)n2[nH]c(-c3ccccc3)cc2n1	-46
O=C(CCC1CCCN(C(=O)c2cc(=O)c3ccccc3o2)C1)NCc1ccccc1F (stereo unspecified)	6
c1cc(-c2ccc(CN3CCCCC3CN3CCOCC3)o2)[nH]n1 (stereo unspecified)	-14
COc1ccc(-c2nc(CCNC(=O)c3ccccc3C(F)(F)F)cs2)cc1	i
Cn1ccnc1-c1nccn1CCc1cccc(F)c1	2

Molecules listed so far containing a COOH group (2):
compound	Tg IFNy HTS
Cc1[nH]n(-c2ccccc2)c(=O)c1N=Nc1ccc(C(=O)O)cc1	57
CSCC[C@H](NC(=O)[C@@H](N)Cc1c[nH]c2ccccc12)C(=O)N[C@@H](CC(=O)O)C(=O)N[C@@H](Cc1ccccc1)C(N)=O	25

New compounds follow:
compound	Tg IFNy HTS
Cc1ccc2nc(NC(=O)c3ccc(Cn4cc(Cl)cn4)o3)sc2c1	-38
Cc1cc(NC(=O)C(C)Cn2nc(C)c(C)c2C)ccc1NC(=O)CN1CCCCC1 (stereo unspecified)	-5
CNC(=S)N(Cc1cccnc1)Cc1cccs1	-66
COc1nc2ccccc2cc1-c1cnc(N)c(C)c1	-9
CCSc1nc(CC(=O)NCCc2cnc[nH]2)cs1	4
CO[C@H]1CN(C)C(=O)c2cccc(C#N)c2OCC[C@H]2CC[C@@H](OC)[C@@H](CN(C)C(=O)[C@@H]1C)O2	-27
CC(=O)N1C(=O)C2(N=C(N)NC(Nc3cccc(C(F)(F)F)c3)=N2)c2ccccc21 (stereo unspecified)	12
COCC(=O)N(C)C[C@H]1[C@@H](c2ccccc2)[C@H](CO)N1C(=O)Cc1ccncc1	-9
CCC(CC)O[C@@H]1C=C(C(=O)O)C[C@H](N)[C@H]1NC(C)=O	10
CC(Cn1cccn1)c1nc(CC2CCN(C)CC2)no1 (stereo unspecified)	1
O=C1CCc2cc(S(=O)(=O)NCc3ccc(Cl)cc3)cc3c2N1CC3	27
Cc1ccc(-c2noc(-c3nnn(Cc4nc(-c5ccccc5)oc4C)c3C)n2)cc1	2
CSc1sc(-c2ccnc(SCC(=O)C(C)(C)C)n2)c2c1C(=O)CC(C)(C)C2	-49
CCN(CC)S(=O)(=O)c1cccc(C(=O)OCC(=O)c2ccccc2)c1	34
CNC(=O)COC1COC2(CCN(C(=O)c3ccn(C)n3)CC2)C1 (stereo unspecified)	-40
COc1ccc(-c2cnc(N(C)C)nc2C2CCN(C(=O)Cn3cccn3)CC2)cc1	-40
O=C(c1cc(-c2ccn(C3CCCC3)n2)n2ccccc12)N1CCCCC1	-27
COc1ccc(-c2c(C#N)c(N)nc3c2CCCC3)cc1OC	42
CCCCN1CCC(c2cc(N)n3nc(C(C)(C)C)cc3n2)CC1	-11
N#C[C@H]1[C@H](c2ccc(-c3cncnc3)cc2)[C@@H](CO)N1C(=O)Cc1ccccc1	7
O=C(CSc1nccc2ccccc12)NCc1noc(-c2ccccc2)n1	-23
O=C(c1cccc(N2CCNC2=O)c1)N1C[C@H]2C[C@H](O)[C@@H](O)C[C@H]2C1	-31
O=C(O)c1ccccc1C1CCN(C(=O)c2cccc3cccnc23)C1 (stereo unspecified)	1
O=C(O)CNc1nc(C(F)(F)F)nc2ccccc12	54
CCOc1ccc(CCNc2nc(-c3ccc(OC)cc3)nc3ccccc23)cc1OCC	14
c1ccc(CC2CCN(Cc3cc4n(n3)CCCNC4)C2)cc1 (stereo unspecified)	-1
O=C(NCc1cccnc1N1CCc2ccccc2C1)c1cccc2c1OCC2	13
CCCN(Cc1nccn1C)C(=O)c1cn(-c2ccccc2)nn1	-1
Cc1cccc(CN2CCN(Cc3cnc(N4CCCCC4)nc3)CC2)c1	4
Cc1noc(C2CCCN2Cc2cnc(-c3ccccc3C)s2)n1 (stereo unspecified)	-52

2 records drawn at random from the list so far:
compound	Tg IFNy HTS
O=C(CSc1nccc2ccccc12)NCc1noc(-c2ccccc2)n1	-23
O=C(O)CNc1nc(C(F)(F)F)nc2ccccc12	54

The listing continues.
| Structure | Tg IFNy HTS |
| --- | --- |
| COc1ccccc1S(=O)(=O)N(C)C[C@H]1OCc2ccccc2-c2ccccc2C(=O)N([C@@H](C)CO)C[C@@H]1C | -17 |
| CC=Cc1ccc2n(c1=O)C[C@H]1[C@H](CO)[C@@H](C(=O)NCCCN(C)C)N(Cc3cocn3)[C@@H]21 (mixture of isomers) | -49 |
| CCOc1ccccc1-c1nc(Cn2nnc(C(=O)Nc3ccc(Cl)cc3)c2C)c(C)o1 | -36 |
| Cc1cccnc1CN(Cc1ccccc1)C(=O)c1ccn(C(F)F)n1 | 4 |
| CCc1cc(C2CCCN2C(=O)Cn2nc(C(F)(F)F)c3c2CCCC3)on1 (stereo unspecified) | 0 |
| CCCNC(=O)N1CCC2(CC1)CN(Cc1cccc(OC)c1)[C@@H](CO)c1[nH]c3cc(OC)ccc3c12 | i |
| COc1ccc(Cl)cc1NC(=O)Cn1c(=O)oc2ccccc21 | 9 |
| CCn1cc(Cn2cc(-c3ccc(OC)cc3OC)nn2)cn1 | -42 |
| Nc1ncnc2c1ncn2CCNCc1ccco1 | 65 |
| CC1(C)CNC(=O)c2nc(CCNc3cccnc3)[nH]c2C1 | -13 |

The closing 2 compounds of the part above are carried over, then new ones follow.
| Structure | Tg IFNy HTS |
| --- | --- |
| Nc1ncnc2c1ncn2CCNCc1ccco1 | 65 |
| CC1(C)CNC(=O)c2nc(CCNc3cccnc3)[nH]c2C1 | -13 |
| Cn1c(CCC(=O)NC2CCC(n3cnnc3)CC2)nc2cccnc21 (stereo unspecified) | 11 |
| Cc1ccc(C(=O)Nc2ccc(-c3nc(Cn4cc(C)cn4)c(C)o3)cc2)cc1 | 62 |
| O=C(c1cncc(N2C[C@@H]3[C@H](C2)[C@H]2CC[C@@H]3O2)n1)N1CCOCC1 | 1 |
| CCc1ccc(NC(=O)Cn2c(=O)cc(C(=O)N3CCCCC3)c3ccccc32)cc1 | 4 |
| O=C(Cn1c(=O)ccc2cc(S(=O)(=O)N3CCCC3)ccc21)NCc1ccc2c(c1)OCO2 | 38 |
| CCS(=O)(=O)N1CCCCN2[C@H](CO)[C@H](c3ccc(-c4ccc(C(=O)N(C)C)cc4)cc3)[C@H]2C1 | 6 |
| COc1ccc(CNC(=O)c2cncc(OC(C)C)c2)cc1OC | -70 |
| Cc1ccc(S(=O)(=O)NCCc2sc(-c3ccc(Cl)cc3)nc2C)s1 | -28 |
| COc1cccc(C2c3ccccc3CCN2CC(=O)Nc2cc(C)on2)c1 (stereo unspecified) | -8 |
| CCOCC1CN(Cc2nc(C)cs2)Cc2ncn(C)c21 (stereo unspecified) | 1 |
| Cn1c(CN2CCN(C3CCCCC3)C(=O)C2)nc2ccccc21 | 5 |
| CC(C)c1noc(C(C)NC(=O)c2cccc3c2NCCC3)n1 (stereo unspecified) | 10 |
| CCCNC(=O)c1nc(Nc2ccc(CC)cc2)c2ccccc2n1 | -83* |
| Cc1nc2ncnn2c(C)c1CCC(=O)Nc1ccccc1CN1CCCCCC1 | -1 |
| CCCNC(=O)N1[C@H](C#N)[C@H](c2ccc(-c3ccccc3F)cc2)[C@@H]1CO | ? |
| Cc1nc(-c2ccccc2F)sc1C(=O)Nc1nc(C(C)C)cs1 | 162 |
| COc1ccc(CC(=O)N2CCc3ncnc(NC4CC4)c3CC2)cc1 | -69 |
| CCCCc1nnc(NC(=O)C2CC(=O)N(CCc3c[nH]c4ccc(OC)cc34)C2)s1 (stereo unspecified) | 68 |
| CCc1c(C)sc2ncnc(-c3ccc(C(=O)N(C)C)cc3)c12 | -18 |
| CCS(=O)(=O)N1CCC2(CC1)OC(=O)C(C)=C2C(=O)NCCCOC | 23 |
| Cn1ccnc1C(=O)N[C@H]1CN(c2ncc(F)cn2)[C@H]2CCCO[C@@H]12 | -6 |
